# KCNQ2 enhance: KCNQ2 (rat) channel potentiation | CHO-K1 KCNQ2, FluxOR thallium flux fluorescence; stronger effect = higher value | B-score at 10 µM | 310,000 tested, 0.54% active;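 active = fluorescence ratio B-score at least 3 SD of library B-scores, with initial fluorescence B-score within 3 SD, cut at about 5.3 in these data; same plate scores as AID 2156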;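 note: B-score of peak minus minimum over baseline fluorescence ratio after K+ and Tl+ stimulus; positive B-score means potentiation of KCNQ2 with more thallium influx and brighter signal; only the inactives scoring about 0 or higher are listed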
# Target sequence (O88943 whole entry, looked up): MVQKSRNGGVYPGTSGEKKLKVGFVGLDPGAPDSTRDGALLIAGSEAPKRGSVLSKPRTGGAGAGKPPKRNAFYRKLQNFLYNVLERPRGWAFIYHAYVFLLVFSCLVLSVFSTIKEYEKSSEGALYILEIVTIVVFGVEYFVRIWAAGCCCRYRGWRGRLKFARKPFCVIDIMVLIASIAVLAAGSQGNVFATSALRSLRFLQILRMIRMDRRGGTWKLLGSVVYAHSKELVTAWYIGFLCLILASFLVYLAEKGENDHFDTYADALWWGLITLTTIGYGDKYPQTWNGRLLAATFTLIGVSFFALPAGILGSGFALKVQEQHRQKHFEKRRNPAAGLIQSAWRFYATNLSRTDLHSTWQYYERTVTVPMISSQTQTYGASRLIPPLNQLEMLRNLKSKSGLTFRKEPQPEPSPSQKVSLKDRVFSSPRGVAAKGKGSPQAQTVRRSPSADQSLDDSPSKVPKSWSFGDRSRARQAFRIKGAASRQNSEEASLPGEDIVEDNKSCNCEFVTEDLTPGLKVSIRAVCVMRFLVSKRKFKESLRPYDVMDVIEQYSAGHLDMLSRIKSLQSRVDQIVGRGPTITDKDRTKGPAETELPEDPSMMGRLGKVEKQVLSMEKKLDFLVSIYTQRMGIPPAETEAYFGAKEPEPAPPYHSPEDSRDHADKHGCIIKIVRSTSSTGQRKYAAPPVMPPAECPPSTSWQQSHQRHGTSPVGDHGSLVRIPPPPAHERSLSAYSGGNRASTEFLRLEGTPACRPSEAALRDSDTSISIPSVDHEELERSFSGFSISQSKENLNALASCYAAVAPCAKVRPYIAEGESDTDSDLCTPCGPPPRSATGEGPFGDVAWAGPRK
# KCNQ2 enhance baseline: further read-out of KCNQ2 enhance, marked with its call; B-score; compound at 10 µM; measured here: initial fluorescence intensity artifact check;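 brightness before thallium and not channel activity; 0 = typical well and far values either way flag optical interference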
# * = called active by the depositor.
# A first look, 2 compounds:
# Second line of a record – KCNQ2 enhance	KCNQ2 enhance baseline
CC1CCCCN1C(=O)c1ccc(Br)o1 (stereo not given)
→ 0.01	2.3
C=CCOC(=O)c1sc(NC(=O)c2ccc(OC)cc2)nc1C
→ 1.87	-0.12

# The whole of this part (from the top)
# Second line of a record – KCNQ2 enhance	KCNQ2 enhance baseline
CC1CCCCN1C(=O)c1ccc(Br)o1 (stereo not given)
→ 0.01	2.3
C=CCOC(=O)c1sc(NC(=O)c2ccc(OC)cc2)nc1C
→ 1.87	-0.12
O=C(Cc1n[nH]c(=O)c2ccccc12)Nc1cccc(S(=O)(=O)N2CCCC2)c1
→ 0.32	0.26
CCN(CC)CC(=O)NC1CCCc2c1cnn2-c1cc(F)cc(F)c1 (stereo not given)
→ 1.53	-0.9
CCNC(=S)NNC(=O)c1ccc(OC(F)F)cc1
→ 0.05	-1.81
CNNC(=O)C(=O)NNS(=O)(=O)c1ccccc1
→ 0.03	-0.11
COc1ccc(/C=N/NC(=O)C(C)n2nnc3ccccc32)cc1OC (stereo not given)
→ 1.17	0.29
O=C(NC1=NCCS1)c1cccc(F)c1
→ 2.35	-0.65
CCn1c(SCC(=O)c2ccccc2)nc2sc3c(c2c1=O)CCN(C)C3
→ 0.8	-1.42
Cc1cc(C)cc(C(=O)NCC(=O)N2CCC3(CC2)NCCc2[nH]cnc23)c1
→ 0.02	-1.52
CCSc1nnc(COc2ccccc2)n1CC
→ 0.19	0.72
CCOc1ccccc1NC(=S)Nc1ccccc1F
→ 2.86	0.01
Cc1ccc(C(CC(N)=O)c2ccco2)cc1 (stereo not given)
→ 0.67	0.13
CN(Cc1ccon1)C(=O)c1ccc2nc(Cc3cccc(Cl)c3)oc2c1
→ 0.31	0.06
COc1cc2c(cc1NC(=O)c1cccc(F)c1)CCCC2
→ 0.05	-0.49
CCCCSCCCNC(=O)CCCN1C(=O)c2ccccc2Sc2ncccc21
→ 1.56	1.08
Cc1cc(C)cc(N(CC(=O)NC(C)(C)C)C(=O)CCC(=O)Nc2ccccn2)c1
→ 0.88	-0.7
O=C(O)CCSc1nnc(CNc2ccc(Cl)cc2)n1Cc1ccccc1
→ 0.02	0.16
COc1ccc(C(=O)NCCNC(=O)c2cnccn2)cc1
→ 0.43	-0.2
Cc1ccc(S(=O)(=O)/N=C2/NC(=O)/C(=C/c3ccccc3)S2)cc1
→ 2.43	-0.83
COc1ccc(S(=O)(=O)N2CCC(C(=O)NC(C)CCc3ccccc3)CC2)cc1 (stereo not given)
→ 0.01	0.18
CCOc1nc2cnccc2n(CC(=O)Nc2c(C)cccc2CC)c1=O
→ 1.62	-0.59
C=CCOc1ccc(/C=N/NC(=O)CN2CCCCC2)cc1OC
→ 0.1	-0.85
Cc1ccc(C(=O)N2CCN(c3ccc(N4CCOCC4)nn3)CC2)cc1C
→ 0.99	0.02
O=C1C2CC=CCC2C(=O)N1c1n[nH]c(-c2ccccc2)n1 (stereo not given)
→ 1.07	-1.66
CCCc1cc(N2CCC(C(N)=O)CC2)nc(-c2ccccc2)n1
→ 1.05	-1.37
CCOC(=O)C1CCN(C(=O)CN2C(=O)c3ccccc3Sc3ncccc32)CC1
→ 1.85	-0.39
COc1ccc(-n2nnnc2S(=O)(=O)Cc2ccc(C(=O)O)cc2)cc1
→ 1.05	-0.23
CNC(=S)Nc1cccc(-c2cnc3ccccc3n2)c1
→ 1.52	0.56
C/C(=N\NC(=O)CNC(=O)C1COc2ccccc2O1)c1ccco1 (stereo not given)
→ 0.52	-1.49

# Exported field by field: entries from further up.
O=C1C2CC=CCC2C(=O)N1c1n[nH]c(-c2ccccc2)n1 (stereo not given)
  KCNQ2 enhance: 1.07 | KCNQ2 enhance baseline: -1.66
CCOC(=O)C1CCN(C(=O)CN2C(=O)c3ccccc3Sc3ncccc32)CC1
  KCNQ2 enhance: 1.85 | KCNQ2 enhance baseline: -0.39
O=C(O)CCSc1nnc(CNc2ccc(Cl)cc2)n1Cc1ccccc1
  KCNQ2 enhance: 0.02 | KCNQ2 enhance baseline: 0.16
COc1ccc(/C=N/NC(=O)C(C)n2nnc3ccccc32)cc1OC (stereo not given)
  KCNQ2 enhance: 1.17 | KCNQ2 enhance baseline: 0.29

# (listing goes on)
# Second line of a record – KCNQ2 enhance	KCNQ2 enhance baseline
CS(=O)(=O)N1N=C(c2cccs2)CC1c1ccco1 (stereo not given)
→ 0.02	0.12
Cc1ccccc1NC(=O)c1cc(S(=O)(=O)c2ccccc2)ccc1Cl
→ 0.82	0.03
O=C(Cn1cc([N+](=O)[O-])cn1)N1N=C(C(F)F)CC1(O)C(F)F (stereo not given)
→ 0.16	0.49
Cc1cc(NC(=O)COC(=O)CCS(=O)(=O)c2ccc(C)c(C)c2)no1
→ 0.91	2.19
CCOC(=O)c1nc2ccccc2nc1C
→ 0.02	1.62
O=C(CN(C1CC1)S(=O)(=O)c1ccc(S(=O)(=O)N2CCCCCC2)cc1)Nc1ccccc1
→ 1.24	-0.45
O=C(C1CCN(S(=O)(=O)c2cccnc2)CC1)N1CCN(c2cccc(Cl)c2)CC1
→ 0.07	-3.29
CC(C)c1ccc2nc(NC(=O)C3CC3)sc2c1
→ 5.56*	0.85*
Cc1cc(NC(=O)c2ccco2)c(=O)n(Cc2c(F)cccc2Cl)c1
→ 1.26	-1.71
CC(C)CCNC(=O)c1ccc(CS(=O)(=O)Cc2ccccc2F)o1
→ 2.43	0.2
O=C(c1cccc(Oc2ccc([N+](=O)[O-])cc2Cl)c1)N1CCOCC1
→ 0.11	-0.09
O=C(c1cccc(S(=O)(=O)NCc2ccccc2)c1)N1CCCC1
→ 1.3	-0.03
CC(C#N)Sc1ncnc2sc(-c3ccccc3)cc12 (stereo not given)
→ 0.9	-2.58
CCC/C(=N\NC(=O)c1ccco1)c1ccc(Cl)s1
→ 0.47	1.03
Cc1ccc(NC(=O)Nc2cccc(C(F)(F)F)c2)nc1
→ 0.87	-0.93
COc1cccc(OC)c1C(=O)N1CCN(c2ccccn2)CC1
→ 0.02	-0.31
COc1ccccc1NC(=O)CSc1nc(O)c(Cc2ccccc2)c(=O)[nH]1
→ 0.61	-0.03
CCOC(=O)CN1CC23C=CC(O2)C(C(=O)N2CCN(c4ccc(F)cc4)CC2)C3C1=O (stereo not given)
→ 1.51	-1.63
Cc1nc2ccc(NS(=O)(=O)c3c(C)c(C)cc(C)c3C)cc2s1
→ 0.26	-0.28
CCOc1c2ccc(C(=O)NC3CCCc4ccccc43)cc2nn1C (stereo not given)
→ 0.61	-2.16
CN(Cc1ccco1)S(=O)(=O)c1ccc2c(c1)CCN2C(=O)CCC(=O)O
→ 0.15	-0.75
CCOc1ccc2c(c1)OC1(CCC(C)C1)CC2=O (stereo not given)
→ 0.13	-0.74
COC(=O)c1ccc(NC(=O)N2CCC(O)(c3cccnc3)CC2)cc1
→ 0.01	-0.47
Cc1cccc2c1N(CCCOc1ccc(C(C)(C)C)cc1)C(=O)C2=O
→ 0.93	0.47
C=CCn1c(CNC(=O)c2cccs2)n[nH]c1=S
→ 0.45	-0.89
CC(=O)c1ccccc1NS(=O)(=O)c1cccc2nonc12
→ 0.48	-0.15
Cc1sc(N)c(C(=O)c2ccccc2Cl)c1C
→ 1.56	1.19
COc1ccc(C(=O)NC2CC2)cc1OC1CCN(Cc2ccc(NC(C)=O)cc2)CC1
→ 1.56	-1.58
Cn1c(=O)[nH]c(=O)c2c1nc(OC(=O)c1ccccc1)n2CC(O)COc1ccc(F)cc1 (stereo not given)
→ 1.13	-0.73
COc1ccc2[nH]cc(CCCN3C(=O)c4ccccc4C3=O)c2c1
→ 0.63	-0.58
O=C(NCC(=O)N(CC1CCCO1)C(C(=O)NC1CCCCC1)c1cccnc1)c1cccs1 (stereo not given)
→ 0.94	-1.36
COc1ccc(CCNC(=O)C(=O)NN=C2CCCCCCC2)cc1OC
→ 1	-0.41
COc1ccc(OC)c(-c2csc(N3CCC(c4ccccc4)CC3)n2)c1
→ 1.43	-1.28
Cc1cc(NS(=O)(=O)c2ccc(NC(=O)c3cc(-c4cccnc4)nc4ccc(Cl)cc34)cc2)no1
→ 0.25	1.52
COc1ccc2oc(C(=O)OCC(=O)N(C)CC(=O)Nc3ccc(C)cc3)c(C)c2c1
→ 7.4*	-3.24*
CN(C)c1nc(N(C)C)nc(N(C#N)Cc2ccc(Cl)cc2)n1
→ 0.52	-0.79
O=C(NC1CC(=O)N(c2ccc(Cl)cc2)C1)C1CC1 (stereo not given)
→ 0.07	1.33
CCCc1cc(=O)[nH]c(SCC(=O)N2CCC(C)CC2)n1
→ 0.73	-0.11
CN(C(=O)C1CCC(=O)N(Cc2cccc(F)c2)C1)C1CCCCC1 (stereo not given)
→ 0.75	-0.56
COc1ccc(CCN2CC(C(=O)NCCN3CCCC3=O)CCC2=O)cc1 (stereo not given)
→ 0.69	-0.01
O=C(OC(C(=O)NCC1CCCO1)c1ccccc1F)c1ccco1 (stereo not given)
→ 0.01	-0.35
CCOc1ccc(-n2cnc3sc(C)c(C)c3c2=O)cc1
→ 1.52	-1.12
Cc1ccccc1C(=O)NNC(=O)c1cccc([N+](=O)[O-])c1
→ 0.62	1.83
O=c1c2ccccc2nc2n1CCO2
→ 0.64	0.64
CCCCN(C(=O)CSc1nn(-c2ccc(F)cc2)c(=S)s1)c1c(N)n(CCCC)c(=O)[nH]c1=O
→ 0.21	-1.34
Cc1ccc(C(=O)C2CCN(S(=O)(=O)c3ccccc3C(=O)O)CC2)cc1
→ 0.02	-2.44
O=C(NN1CCOCC1)c1ccc(Cl)c(Cl)c1
→ 2.03	0.31
COCCNC(=S)Nc1ccc(N2CCCCC2)cc1
→ 0.47	-0.99
CSc1cccc(NC(=O)Cc2ccccc2[N+](=O)[O-])c1
→ 0.25	0.39
COc1ccc(NC(=O)CC2C(=O)N(c3ccccc3)C(=O)N2Cc2ccco2)cc1 (stereo not given)
→ 0.75	-0.21
CN1CCCN(c2ncnc3scc(-c4ccc(F)cc4)c23)CC1
→ 0.04	0.72
CC(C)=NOCC(=O)Nn1c(COc2ccccc2)nc2ccccc2c1=O
→ 1.75	1.51
COc1cc(C(=O)NCc2ccccn2)ccc1OCc1c(C)noc1C
→ 0.68	-3.58
CCCn1c(C)cc(/C=C(\C#N)C(=O)OCC(=O)NC(=O)NC(C)(C)C)c1C
→ 0.68	0.26
COCCN(C(=O)COC(=O)C12CC3CC(CC(Cl)(C3)C1)C2)c1c(N)n(Cc2ccccc2)c(=O)[nH]c1=O
→ 0.7	-0.3
CCCCn1c(=O)c(-[n+]2ccccc2)c([O-])c2ccccc21
→ 0.72	-0.01
Cc1c(S(=O)(=O)c2ccccn2)c(N)n(Cc2cccc(Cl)c2)c1C
→ 1.74	-1.94
CCOC(=O)C1C(=O)C=C(c2ccc(NS(C)(=O)=O)cc2)CC1c1ccco1 (stereo not given)
→ 0.46	-0.52
CCCc1cc(=O)[nH]c(N2CCN(Cc3ccc4c(c3)OCO4)CC2)n1
→ 0.54	0.78
O=C(O)C(Cc1c[nH]c2ccccc12)NS(=O)(=O)c1cccc2nsnc12 (stereo not given)
→ 0.12	-0.05

# Looked up above.
# Entry of O=C(NN1CCOCC1)c1ccc(Cl)c(Cl)c1 under KCNQ2 enhance baseline: 0.31
# Entry of CN1CCCN(c2ncnc3scc(-c4ccc(F)cc4)c23)CC1 under KCNQ2 enhance baseline: 0.72
# Entry of O=C(OC(C(=O)NCC1CCCO1)c1ccccc1F)c1ccco1 (stereo not given) under KCNQ2 enhance: 0.01

# Sorted by the number under KCNQ2 enhance baseline (low to high): five from the list above
Compound | KCNQ2 enhance baseline
O=C(OC(C(=O)NCC1CCCO1)c1ccccc1F)c1ccco1 (stereo not given) | -0.35
CCCCn1c(=O)c(-[n+]2ccccc2)c([O-])c2ccccc21 | -0.01
CCCn1c(C)cc(/C=C(\C#N)C(=O)OCC(=O)NC(=O)NC(C)(C)C)c1C | 0.26
O=C(NN1CCOCC1)c1ccc(Cl)c(Cl)c1 | 0.31
O=c1c2ccccc2nc2n1CCO2 | 0.64

# Next part.
# Second line of a record – KCNQ2 enhance	KCNQ2 enhance baseline
COc1cccc(/C=C/C(=O)OCC(=O)Nc2ccc(Cl)cn2)c1
→ 1.59	-2.69
O=C(Nc1ccc(Cl)cc1)Nc1nnc(CSCc2ccccc2Cl)s1
→ 0.95	0.82
O=C(Nc1ccc2nc3n(c(=O)c2c1)CCCC3)c1cccnc1Cl
→ 1.98	-0.29
CCCc1cc(C(=O)Cc2ccccn2)c(O)cc1O
→ 0.64	0.63
Cc1ccc(Sc2cnc(N)nc2C)cc1
→ 0.28	1.7
COc1cc(C(=O)NC2CCN(Cc3nnnn3Cc3ccc(F)cc3)CC2)cc(OC)c1OC
→ 1.16	-0.08
CN(C)c1nc(N/N=C\c2ccc(Cl)c([N+](=O)[O-])c2)nc(Nc2ccc(F)cc2)n1
→ 0.17	3.48
Nc1nc2c(nc(SCc3ccccc3Br)n2C2OC(CO)C(O)C2O)c(=O)[nH]1 (stereo not given)
→ 0.49	-0.15

# Bioassay records deposited in PubChem by Johns Hopkins Ion Channel Center.

# These rows are one share of the data; rates above refer to the full screens.
